Source: PubChem
eIF4H inh: human eIF4H binding inhibitors, primary screen, translation initiation inhibitor project, biochemical, uHTS, fluorescence polarization. 290,000 compounds, 0.94% hits. inhibition, % at 35 µM. AID 2012, 2009. eIF4H fluorescence polarization binding assay;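 active = 50% or more with normal probe brightness, or confirmed in later tests; inconclusive = above 50% with abnormal brightness, or retests that disagree; inactive = below 50% or failed in later tests; about a fifth of its hits are not listed in these tables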;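 also: calls also rest on retests at 20 µM and on dose response follow-up; 0% = protein and probe with vehicle and 100% = probe without protein; strong numbers were not always called active; many hits fall short of the cut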
PABP FP inh: PABP poly(A) RNA binding inhibitors, primary screen, biochemical, fluorescence polarization, uHTS. Polyadenylate-binding protein 1 (Homo sapiens), P11940. inhibition, % at 35 µM. 290,000 compounds, 1% hits;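 active = 50% or more with normal probe brightness, or confirmed in later tests; inconclusive = above 50% with abnormal brightness, or retests that disagree; inactive = below 50% or failed in later tests; about a fifth of its hits are not listed in these tables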;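 also: calls also rest on retests at 20 µM and on dose response follow-up; controls were probe without protein and protein plus probe with vehicle; some compounds called inactive have numbers as strong as hits; many hits fall short of the cut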
Target sequence (P11940 whole entry, looked up): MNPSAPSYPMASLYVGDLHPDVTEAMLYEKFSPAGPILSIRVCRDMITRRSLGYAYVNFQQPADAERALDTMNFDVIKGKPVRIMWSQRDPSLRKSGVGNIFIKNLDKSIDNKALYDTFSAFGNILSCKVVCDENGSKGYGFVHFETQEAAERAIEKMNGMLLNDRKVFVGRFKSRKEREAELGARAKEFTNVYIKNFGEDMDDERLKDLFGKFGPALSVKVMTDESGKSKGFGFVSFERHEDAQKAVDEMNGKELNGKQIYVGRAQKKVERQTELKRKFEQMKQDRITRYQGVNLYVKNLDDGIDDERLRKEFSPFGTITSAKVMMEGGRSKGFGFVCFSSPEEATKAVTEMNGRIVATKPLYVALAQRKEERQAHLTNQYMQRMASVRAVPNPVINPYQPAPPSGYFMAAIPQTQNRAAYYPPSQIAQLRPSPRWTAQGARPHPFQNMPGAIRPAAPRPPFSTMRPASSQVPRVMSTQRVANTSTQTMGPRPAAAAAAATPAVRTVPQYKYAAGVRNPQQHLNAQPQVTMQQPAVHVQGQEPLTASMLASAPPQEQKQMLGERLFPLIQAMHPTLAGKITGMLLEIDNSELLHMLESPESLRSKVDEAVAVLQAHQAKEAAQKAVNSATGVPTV
Yeast UUG start: modulators of yeast start codon fidelity, primary screen, whole organism, S. cerevisiae, single point, plate reader. S. cerevisiae UUG-firefly luciferase reporter, luminescence/redox ratio. activity score, % at 18.7 µM. 350,000 compounds, 0.13% hits;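 active = replicate mean at a twofold rise or more, about +100% in these data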;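 also: firefly luciferase made from a UUG start codon reports start codon fidelity; reporter light over untreated wells divided by growth signal over untreated wells; some hits fall short of that in this replicate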
CSC inhib: cancer stem cell viability inhibitors, primary screen, luminescence | cancer stem cell-like cells viability | inhibition, % at 7.5 µM | 300,000 compounds, 1.1% hits | AID 2717, 2010;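 active = mean at 75% or more and at least half the replicates too; inconclusive = mean and replicates disagree; tested in HMLE shEcad cells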;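 also: 0% = median of negative and 100% = median of positive control wells; the first replicate is given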
Env fusion inh: inhibitors of HIV-1 Env-driven cell-cell fusion, primary screen, HeLa-JRFL effector, CEM21 target cells, luciferase; 360,000 compounds, 1.1% hits; inhibition, % at 12.3 µM; AID 651610, 2012;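 active = mean replicate inhibition score of at least 50 and every replicate individually at or above 50; inconclusive = only one of the two criteria met; inactive = mean below 50 and not all replicates reaching 50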;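 also: 0% = plate neutral controls and 100% = maraviroc near 300 nM; one replicate is shown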
Rce1 inh: yeast Rce1p protease inhibitors, primary screen, biochemical, fluorescence, cell-free homogeneous | 290,000 compounds, 0.27% hits | yeast membranes, quenched prenylated peptide cleavage fluorescence | calls only;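 active = fall in fluorescence gain of 50% or more versus controls, with final raw signal at or below 3038400; inconclusive = same 50% fall but final raw signal above 3038400; inactive = fall in fluorescence gain under 50%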;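 also: plate controls were neutral control wells for no effect and wells lacking membranes for full effect; tested at 10 µM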
MT1-MMP act inh: blockers of MT1-MMP proenzyme processing, primary screen, HT1080 RFP-PRO-GFP cells, GFP/RFP fluorescence. GFP/RFP ratio fluorescence, overnight; percent of plate control window, DMSO zero. GFP/RFP ratio change, % at 20 µM. 360,000 compounds, 0.061% hits. AID 651647, 2012;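 active = GFP/RFP ratio change of at least 30% with cell ATP level not reduced by more than half and red fluorescence within 50% of control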; also: strong numbers were not always called active
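Compound: 20 µM single dose, 1% DMSO / System: HT1080 RFP-PRO-GFP cells / Controls: DMSO and RFP-L50D-GFP cell wells / Read-out basis: GFP/RFP fluorescence ratio / Schedule: overnight compound exposure at 37 °C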
PABP FP inh retest: also measured in PABP FP inh; calls as there; inhibition, %; compound at 20 µM; confirmation repeats;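 mean of two retest wells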
MT1-MMP act inh RFP: second read-out of MT1-MMP act inh, no call of its own (marks repeat the call); RFP signal change, %; measured here: RFP expression control read;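 0 = vehicle wells; hits needed this value within 50% of zero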
Numbers without * were called inactive; i = inactive; u = inconclusive; x = not tested or not shown. The order is random; any-hit rate near 2.9%.

SMILES | eIF4H inh | PABP FP inh | Yeast UUG start | CSC inhib | Env fusion inh | Rce1 inh | MT1-MMP act inh | MT1-MMP act inh RFP | others
CCOC(=O)C1=C(C)NC(SCc2cc(=O)[nH][nH]2)=C(C#N)C1c1cccs1 (configuration not stated) | 30 | 13 | -9 | -3 | x | i | 6 | -1
C/C(=N\NC(=O)COc1ccc(C)cc1C(C)C)c1cc2ccccc2o1 | 29 | 11 | x | x | -2 | i | 6 | 9
Cc1[nH]c2ccccc2c1C(=O)CSC(=S)N(C)C1CCCCC1 | -8 | -3 | -8 | x | -24 | i | 1 | 3
OCCOCCNc1ncnc2c1cnn2-c1ccc(Cl)cc1 | 3 | -13 | -19 | -4 | x | i | 0 | 0
CC12CCC(C(=O)NCc3ccc4c(c3)OCO4)(CC1=O)C2(C)C (configuration not stated) | -2 | -2 | -5 | 0 | x | i | -8 | -4
CC(=O)Nc1ccc(S(=O)(=O)N2CCN(c3ccc([N+](=O)[O-])c(NCCN4CCOCC4)c3)CC2)cc1 | -2 | -5 | -4 | 0 | 22 | i | 9 | -4
O=C(CCS(=O)(=O)c1ccc(Br)cc1)N1CCN(c2ccccc2F)CC1 | -11 | -11 | -11 | 0 | x | x | 1 | -1
CCOC(=O)C1=C(C)N(Cc2ccccc2)C(=O)NC1c1ccc(OC)cc1 (configuration not stated) | -7 | -1 | 5 | -20 | u | i | 1 | -4
COc1ccc(Cc2nnc(NC(=O)c3cccc(C)c3)s2)cc1 | -5 | -10 | x | -7 | 4 | i | 1 | -1
COc1ccc(CN(C)C(=O)Cn2cnc3c(OCc4ccccc4)ncnc32)cc1OC | x | x | -8 | x | 0 | x | 1 | -2
Cc1cccc(C2c3[nH]c4ccccc4c3CCN2C(=O)c2cc3c([nH]c2=O)CCCC3)n1 (configuration not stated) | 7 | 3 | x | -6 | 4 | i | -2 | -6
COc1ccc(-c2nc(C)sc2CC(=O)O)cc1 | 0 | 2 | -4 | 4 | x | i | -7 | 1
Cc1ccc(COC(=O)CN2C(=O)NC3(CCCC3)C2=O)cc1 | x | x | -4 | 9 | -5 | x | 1 | 4
COc1ccccc1OCC(=O)NNC(=O)c1cccs1 | 2 | 3 | -3 | -16 | -5 | i | -3 | -3
Cc1ccc(CN(C)C(=O)c2cccc(S(=O)(=O)N3CCCC3)c2)o1 | x | x | 2 | -8 | 25 | x | -1 | 4
Cc1cc(NC(=O)C2CC=CCC2C(=O)O)no1 (configuration not stated) | 16 | -3 | -2 | -15 | -14 | i | -3 | 1
Cc1ccc(NS(=O)(=O)c2ccc(Cl)c(NC(=S)NC(=O)C3CCCCC3)c2)cc1Cl | -10 | 4 | x | 106* | 4 | i | -12 | -19
CCOC(=O)[C@H]1[C@H]2COc3ccc(C)cc3[C@@H]2N2C(=O)CN(Cc3ccc(C)cc3)C(=O)[C@@]12C | x | x | -9 | -3 | -10 | x | -7 | -1
CN(CC(=O)Nc1c(Cl)cccc1Cl)C(=O)c1n[nH]c2ccccc12 | x | x | 2 | -1 | 16 | i | 0 | 1
O=C(NC(=S)Nc1ccc(-c2ccc(CO)o2)cc1)c1cccs1 | 44 | 25 | x | 0 | x | i | -5 | 4
O=S(=O)(Nc1cc(Sc2ncn[nH]2)c(O)c2ccccc12)c1ccccc1 | -2 | 11 | x | x | 18 | x | -54 | -31
CCOc1ccccc1NC(=O)C1CCCN1C(=O)OCc1ccccc1 (configuration not stated) | -6 | 2 | 3 | 1 | x | i | 0 | -1
CCN(CC(=O)Nc1ccccc1OC)C(=O)C1CCC1 | x | x | -23 | -5 | -31 | i | 4 | 2
O=C(c1cc(COc2c(F)cccc2F)on1)N1CCN(C2CCCCC2)CC1 | 8 | 8 | -4 | x | -3 | i | -1 | 1
Cn1cccc1CNC(=O)Nc1ccccc1 | 4 | 11 | -21 | 12 | -35 | i | -2 | 4
CC(=O)NC1(c2cccc(F)c2)CCN(CC(=O)NC2CCCCC2)CC1 | -11 | -11 | -2 | -4 | 10 | i | -3 | 8
COC(=O)CC1(c2ccccc2)C(=O)c2ccccc2C1=O | -10 | -8 | -16 | 14 | x | i | 1 | 1
COc1ccc(C(=O)c2c3ccc(C(F)(F)F)cc3[n+]([O-])n2CCCN)cc1 | x | x | -4 | -8 | 6 | i | 1 | 0
CC(Sc1nnnn1C)C(=O)Nc1ccccc1 (configuration not stated) | 0 | 4 | x | -1 | 15 | i | 1 | 0
Cn1c(-n2c(CCCN3C(=O)c4ccccc4C3=O)nc3ccccc3c2=O)nc2ccccc21 | -2 | -2 | -9 | -3 | x | i | -7 | -2
O=C(COC(=O)Cc1ccc(S(=O)(=O)N2CCOCC2)s1)Nc1ccccc1 | x | x | -23 | -14 | 4 | x | -2 | 6
COc1ccccc1N1C(=O)C2CC(C)=C(C)CC2C1=O (configuration not stated) | 8 | 9 | 15 | 0 | x | i | -3 | 6
COc1cc(OC)cc(C(=O)NC(=S)N(Cc2ccccc2)C(C)C)c1 | 5 | 10 | -20 | 14 | -11 | i | 2 | 3
COc1cccc(C(=O)NC2CCCc3ccccc32)c1OC (configuration not stated) | -12 | 0 | -8 | -7 | 21 | x | -2 | 1
O=C(O)c1ccc(Br)cn1 | 27 | 22 | x | 18 | -13 | i | 3 | 3
COc1ccc(S(=O)(=O)Cc2ccc(C(=O)N3CCOCC3)o2)cc1 | -9 | 6 | -9 | -11 | -1 | i | -4 | 3
COCCCNC(=O)CCCn1c(=O)c2ccccc2n(CC(=O)Nc2c(C)cccc2C)c1=O | -8 | 1 | -2 | -34 | x | i | 1 | 3
COc1cc(C)c(C(C)C)cc1S(=O)(=O)N1CCOCC1 | 3 | 4 | 9 | -5 | x | i | 0 | -2
CC(C)NC(=O)COC(=O)CNC(=O)c1cc(Cl)cc([N+](=O)[O-])c1 | 8 | -5 | 1 | -12 | -2 | i | 2 | 5
C=CCn1c(=O)/c(=C2/Sc3ccccc3N2CC)s/c1=C1/C(=O)NN=C1C | u | 47 | x | 15 | x | i | x | x | PABP FP inh retest=48
COc1ccc(CN2CCCCCC2)cc1OC | x | x | -24 | -11 | -11 | i | 5 | 7
CCOC(=O)C(Cc1ccc(O)cc1)NC(=O)CNC(=O)C1CCCN1C(=O)OC(C)(C)C (configuration not stated) | -6 | 4 | -20 | -10 | 5 | i | 1 | 6
O=C(Oc1cccnc1)c1ccc([N+](=O)[O-])cc1Cl | 5 | 7 | -23 | 11 | -5 | x | 2 | 1
COc1cc(/C=C2\SC(=O)NC2=O)ccc1Oc1ccc([N+](=O)[O-])cn1 | 4 | 9 | -3 | 9 | 7 | i | x | x
Cc1sc2nc(CN3CCCC3)nc(Cl)c2c1C | 4 | -3 | x | 2 | 9 | i | -3 | 3
CCN1C(=O)c2ccccc2S(=O)c2ccc(C(=O)N3CCCC3)cc21 (configuration not stated) | -11 | -6 | -5 | 6 | -70 | i | 4 | 4
CNc1cc(-c2cccc(N(C)C)c2)ncn1 | x | x | -26 | x | -179 | x | 3 | 8
CC(C)Sc1nc2c(c(=O)n1C)SC(C)C2 (configuration not stated) | -2 | 7 | 1 | -13 | x | i | -4 | 2

Arranged by length of the SMILES (high to low): some entries from above
SMILES | eIF4H inh | PABP FP inh | Yeast UUG start | CSC inhib | Env fusion inh | Rce1 inh | MT1-MMP act inh | MT1-MMP act inh RFP | others
COc1cc(/C=C2\SC(=O)NC2=O)ccc1Oc1ccc([N+](=O)[O-])cn1 | 4 | 9 | -3 | 9 | 7 | i | x | x
CCN1C(=O)c2ccccc2S(=O)c2ccc(C(=O)N3CCCC3)cc21 (configuration not stated) | -11 | -6 | -5 | 6 | -70 | i | 4 | 4
CC(C)Sc1nc2c(c(=O)n1C)SC(C)C2 (configuration not stated) | -2 | 7 | 1 | -13 | x | i | -4 | 2

Carrying on:
SMILES | eIF4H inh | PABP FP inh | Yeast UUG start | CSC inhib | Env fusion inh | Rce1 inh | MT1-MMP act inh | MT1-MMP act inh RFP | others
Cc1nc(N2CCN(Cc3ccc4c(c3)OCO4)CC2)nc2c1C(=O)CC(c1ccco1)C2 (configuration not stated) | -2 | -3 | -11 | 52 | -27 | i | 1 | -3
CCOc1ccc(S(=O)(=O)N(C)C)cc1-c1nc2c(C(C)(C)C)nn(C)c2c(=O)[nH]1 | -5 | -8 | -3 | -16 | x | i | 3 | -1
Cc1ccc(C(=O)N2CCN(S(=O)(=O)c3ccc(C(C)C)cc3)CC2)s1 | x | x | 4 | -5 | 1 | i | -5 | -13
CCOC(=O)C[C@H]1c2cc(F)ccc2S(=O)(=O)N1C(C)C | x | x | -4 | 7 | 11 | i | 8 | 2
CC1CCN(C(=S)NCCc2ccccc2)CC1 | -2 | -8 | -25 | -5 | x | i | 4 | 3
CCCCCCN1C[C@H](O)[C@@H](n2cc(C3CC3)nn2)C[C@@H]1c1ccc(C)cc1 | x | x | 2 | x | -10 | x | -4 | -5
CCOn1c(=O)c(-c2cc3ccccc3o2)[n+]([O-])c2ccccc21 | 45 | 35 | -7 | -17 | x | i | -2 | 5
CC1(C(=O)NS(=O)(=O)c2cccc(C#N)c2)CCN1C(=O)C1(c2ccc(Cl)cc2)CC1 (configuration not stated) | x | x | -8 | x | 2 | x | -1 | 2
c1ccc(CN2CCN(c3nc(N4CCOCC4)c4ccccc4n3)CC2)cc1 | x | x | -8 | 33 | -59 | i | 9 | -3
Cc1ccc2cc(CN(CCc3ccccc3)C(=S)NCCCN(C)C)c(=O)[nH]c2c1 | 7 | -3 | 2 | -7 | -2 | i | -4 | 0
CCOc1ccc(-c2cc(C(=O)NCCCn3ccnc3)c3cc(Br)ccc3n2)cc1 | -22 | -44 | -16 | 11 | -51 | i | -1 | -4
O=C(NCCCNC(=O)c1ccc(F)cc1)c1ccc(F)cc1 | 14 | 8 | -15 | -18 | 5 | i | -2 | 2
O=C(/C=C/Nc1ccccc1OC(F)(F)F)C(F)(F)F | -15 | -1 | -12 | -4 | x | i | -3 | 0
Cc1ccsc1/C=N/NC(=O)Cn1nc(C)c([N+](=O)[O-])c1C | -6 | -9 | x | -1 | 0 | i | 6 | 4
CC(=O)c1cccc(OC(=O)c2cc(S(=O)(=O)N3CCOCC3)ccc2N2CCCC2)c1 | x | x | -3 | x | -7 | x | 2 | -2
CCOC(=O)Nc1ccc(N2CCOCC2)c(S(=O)(=O)Nc2ccc(Cl)cc2)c1 | x | x | -2 | 21 | -54 | x | 1 | -4
COc1ccc(Br)cc1C1SCCN1S(C)(=O)=O (configuration not stated) | -6 | -4 | -9 | -13 | x | i | 5 | 6
COc1ccc([C@@H]2[C@@H]3C(=O)N(C(C)(C)C)C(=O)[C@@H]3[C@]3(CC(C)C)C(=O)N(c4ccc(C(F)(F)F)cc4)C(=O)N23)cc1 | -12 | 2 | -20 | -6 | 109* | i | -11 | -7
CCCOc1ccc(N2C(=O)CC(NCCCN3CCC(C(N)=O)CC3)C2=O)cc1 (configuration not stated) | x | x | -6 | 3 | x | i | 1 | 0
CC1Cc2ccccc2N1C(=O)CSc1ncc(-c2ccc(F)cc2)n1C (configuration not stated) | 4 | -6 | -11 | -12 | -25 | i | -3 | -10
Cc1ccc(S(=O)(=O)NC(CC(=O)OCc2ccccc2)C(=O)OCc2ccccc2)cc1 (configuration not stated) | x | x | -19 | x | 0 | x | 5 | 4
CC(NC(=O)CCN1N=C(c2ccccc2)CCC1=O)c1ccc2c(c1)OCCO2 (configuration not stated) | -2 | 6 | x | -22 | x | i | x | x
